Bioassay records: PubChem BioAssay, National Center for Advancing Translational Sciences (NCATS)
TSHR ag – qHTS Assay for Agonists of the Thyroid Stimulating Hormone Receptor; Thyrotropin receptor (Homo sapiens), P16473; HEK293-CNG-TSHR cells (CNG channel as cAMP sensor), membrane potential dye, cAMP; Potency, µM (highest dose often 57.1 µM), inactives show at the highest dose activation, usual class: activators; 73,000 tested, 0.48% active; AID 926, 2007; active = well fitted activation curve of enough size with the parental cells flat; inconclusive = any curve in the parental cells; inactive = parental cells flat and receptor cells flat or falling; also: potency is read from the fitted curve at half-maximal effect; % of control where 0% means no effect; weak receptor curves with flat parental cells got no call and are not listed
Target sequence (P16473 whole entry, looked up): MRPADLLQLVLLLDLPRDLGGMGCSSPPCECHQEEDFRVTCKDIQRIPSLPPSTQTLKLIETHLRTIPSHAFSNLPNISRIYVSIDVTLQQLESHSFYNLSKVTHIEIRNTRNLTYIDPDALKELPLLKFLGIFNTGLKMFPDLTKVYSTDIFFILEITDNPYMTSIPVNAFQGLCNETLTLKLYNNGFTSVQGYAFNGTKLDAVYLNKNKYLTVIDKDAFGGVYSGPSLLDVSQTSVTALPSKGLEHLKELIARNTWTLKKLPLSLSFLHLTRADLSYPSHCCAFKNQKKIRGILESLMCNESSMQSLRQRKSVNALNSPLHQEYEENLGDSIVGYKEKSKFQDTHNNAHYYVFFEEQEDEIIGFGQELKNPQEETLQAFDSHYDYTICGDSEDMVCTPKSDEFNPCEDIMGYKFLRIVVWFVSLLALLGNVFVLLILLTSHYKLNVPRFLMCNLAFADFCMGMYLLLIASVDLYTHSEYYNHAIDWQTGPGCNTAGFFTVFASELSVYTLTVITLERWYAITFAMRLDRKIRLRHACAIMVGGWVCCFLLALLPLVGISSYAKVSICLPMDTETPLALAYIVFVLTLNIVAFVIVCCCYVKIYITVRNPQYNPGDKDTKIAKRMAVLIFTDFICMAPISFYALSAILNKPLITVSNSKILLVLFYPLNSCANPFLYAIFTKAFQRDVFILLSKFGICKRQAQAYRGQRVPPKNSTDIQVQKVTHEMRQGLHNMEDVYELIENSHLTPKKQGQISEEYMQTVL
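HEK 293 cells stably expressing TSHR and a cAMP-gated CNG channel; parental CNG-only cells as counterscreen. Cells preloaded 60 min with membrane potential dye plus 100 uM RO 20-1724, then compound 30 min; fluorescence read at 590 nm.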
A488 fluor – qHTS Assay for Spectroscopic Profiling in A488 Spectral Region; max dye equivalency, M; AID 591, 2007; compound autofluorescence, A488 spectral region, dye equivalency; stronger effect = higher value; 59,000 tested, 0.1% active; active = above 10 nM dye equivalent; inconclusive = 1 to 10 nM; inactive = 1 nM or less; about half of its hits are not listed in these tables;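 also: highest value over a series up to 38 µM; compound alone in buffer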
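Compounds pin-transferred into 100 mM Tris buffer, pH 8.0, incubated 15 min at room temperature, then imaged with 480 nm excitation/540 nm emission filters. Fluorescence converted to Alexa 488 dye-equivalent concentration via an on-plate six-point A488 standard curve.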
A647 autofl – qHTS Assay for Spectroscopic Profiling in A647 Spectral Region; Compound fluorescence, A647 channel (570/671 nm), Tris buffer; max dye-equivalent concentration, M; 59,000 tested, under 10 active; active means above 1 µM dye equivalent; inconclusive means 0.1 to 1 µM; inactive means 0.1 µM or less;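 also: values scaled relative to a standard on each plate; highest value over a series up to 38 µM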
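Each compound's intrinsic fluorescence at 570 nm excitation and 671 nm emission is measured across its concentration series in 100 mM Tris, pH 8.0, after 15 min at room temperature, and reported relative to an A647 curve.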
Resorufin autofl – qHTS Assay for Spectroscopic Profiling in Resorufin Spectral Region | Compound fluorescence, resorufin region 547/598 nm, buffer; stronger effect = higher value | max dye-equivalent concentration, M | 59,000 tested, 0.04% active | AID 588, 2007; active = above 10 nM dye equivalent; inconclusive = 1 to 10 nM; inactive = 1 nM or less; a few of its hits are not listed in these tables; also: highest value over a series up to 38 µM
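Intrinsic fluorescence profiled in the resorufin window (ex 547 nm, em 598 nm) after 15 min at room temperature in pH 8.0 Tris buffer (100 mM); responses normalized against a six-point resorufin standard series as dye-equivalent concentration.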
AID923 – qHTS Assay for Allosteric/Competitive Inhibitors of Caspase-1: Spectroscopic Profiling in AFC Spectral Region. compound fluorescence, AFC spectral region (405/520 nm); almost no hit is shown here. Potency, µM (doses to about 57.5 µM), for the others: at the top dose fluorescence increase, most hits filed as activators. 75,000 tested, 1.1% active; active = well fitted activation curve with a large enough effect; inconclusive = small, poorly fitted or top-dose-only effect;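 also: potency is read from the fitted curve at half-maximal effect; 0% is about no effect; scaled to a free AFC standard on each plate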
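Titrations up to 57 uM read every 20 sec for 3 min (405/520 nm) with 50 nM caspase 1 and 5 uM Ac-WEHD-AFC, pH 7.5 HEPES buffer. Fluorescence-vs-time intercept gave baseline, scaled against on-plate AFC standard.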
An asterisk follows results filed as active; i = inactive; ? = inconclusive; . = no result given; [ ] = dose if it differs, or a comment. Not all compounds are listed (hit frequency here may not be typical).

SMILES	TSHR ag	A488 fluor	A647 autofl	Resorufin autofl	AID923
COc1ccc(CNC(=O)CN(C(=O)c2ccc(CN3CCOCC3)o2)C2CCCC2)cc1	2.1%	i	5.3e-09	i	0.6%
CC(=O)N1CCc2cc(S(=O)(=O)NC(C(=O)Nc3nc(C)cs3)C(C)C)ccc21 (centres undefined)	-2.3%	i	1e-09	i	-1.6%
O=C(Nc1cccc2ccccc12)c1ccc(Br)o1	?	.	.	.	-0.4%
Cc1cccc(NC(=O)CN(C)S(=O)(=O)c2ccccc2)n1	2.5%	i	1.86e-08	i	-2.1%
COc1ccc(OC)c(S(=O)(=O)Nc2ccccc2C)c1	-2.3%	i	1e-09	i	-0.3%
CCN(CC)C(=O)CN1C(=O)C2(OCC(C)(c3ccccc3)CO2)c2ccccc21 (centres undefined)	3.3%	i	9.5e-09	i	0.2%
N#C/C(=C\c1cccs1)Sc1nc2ccccc2s1	.	i	4.04e-08	i	6.8%
COc1ccc(S(=O)(=O)N2CCCCC2C(=O)O)cc1OC (centres undefined)	-2.4%	i	1e-09	i	0.1%
CCc1nc(N2CCN(C(=O)c3ccco3)CC2)c2oc3ccccc3c2n1	?	i	2.01e-08	i	0.4%
CC1CC(C)CN(S(=O)(=O)c2ccc(C(=O)N3CCN(c4ccccc4)CC3)cc2)C1 (centres undefined)	13.6%	i	1e-09	i	1.6%
O=C(CN(c1ccc(F)cc1)S(=O)(=O)c1ccccc1)NCc1ccco1	.	i	1.19e-08	i	1.0%
CCOc1ccc(-n2c(SCC(N)=O)nc3c(c2=O)SCC3)cc1	-0.8%[11.4 µM]	i	7.2e-09	i	-0.6%
CCCCS(=O)(=O)C(=C1Nc2ccccc2N1)S(=O)(=O)CCCC	-2.7%[11.4 µM]	i	1.2e-09	i	-1.2%
O=C(Nc1nnc(-c2ccccc2)s1)c1ccc(Cl)c(S(=O)(=O)N2CCOCC2)c1	1.3%[11.4 µM]	.	.	.	-1.3%
COC(=O)N1CCC2(CCN(Cc3cc(C(F)(F)F)cc(C(F)(F)F)c3)CC2)CC1	?	i	7.5e-09	i	2.6%
CC1=Nn2c(nnc2C2CCCCC2)SC1	7.3%	i	2.21e-08	i	-0.2%
O=S1(=O)CC(NCc2ccccc2)C(Nc2ccc(Cl)cc2)C1 (centres undefined)	-6.7%	i	2.81e-08	i	-0.9%
O=C1c2ccccc2C(=O)N1CCCCSc1nnnn1-c1ccccc1	?	i	1.55e-08	i	1.2%
COC(=O)c1[nH]c2ccccc2c1NC(=O)CN1CCN(c2cccc(Cl)c2)CC1	12.9%	i	3.23e-08	i	0.4%
Cc1ccccc1OCC(=O)N(Cc1ccc(N(C)C)cc1)C1CCS(=O)(=O)C1 (centres undefined)	7.5%	i	3.71e-08	i	-0.6%
O=C(c1ccc2c(c1)OCO2)N(c1ccc(F)cc1)C1C=CS(=O)(=O)C1 (centres undefined)	15.4%	i	6.3e-09	i	-2.0%
CCN1C(=O)/C(=C2\SC(=S)N(CCCOC)C2=O)c2ccccc21	?	i	3.2e-09	i	0.1%
Cc1ccc(NCc2nnc(SCCN3CCCCC3)n2CC2CCCO2)c(C)c1 (centres undefined)	-1.5%	i	3.56e-08	i	-1.1%
COCCNC(=O)[C@@]1(Cc2ccccc2)C=C[C@@H](C)N1C(=O)OC	-1.5%	.	.	.	-0.2%
CCOc1ccc(NC(=O)CCNS(=O)(=O)c2ccc3c(c2)c(=O)n(C)c(=O)n3C)cc1	-1.5%	i	1e-09	i	-1.0%
Cn1c(=O)c2c(ncn2CCN(CCO)Cc2ccccc2)n(C)c1=O	-0.9%	i	1e-09	i	-0.9%
COCc1[nH]nc2c1C(c1ccc(OC)c(OC)c1)C(C#N)=C(N)O2 (centres undefined)	4.6%	i	3.3e-09	i	1.1%
Cn1c(=O)c2c(nc(Br)n2CCSc2nnnn2-c2ccccc2)n(C)c1=O	?	i	1e-09	i	-1.0%
COc1cc2c3cc1Oc1c(OC)c(OC)cc4c1[C@@H](Cc1ccc(O)c(c1)Oc1ccc(cc1)C[C@@H]3N(C)CC2)N(C)CC4	-2.7%	i	1e-09	i	-0.8%
COc1ccc(S(=O)(=O)N2CN(Cc3ccco3)c3nc4ccccc4nc32)cc1	?	i	1.7e-09	i	6.6%
Cc1ccnc(NC(=O)c2ccc(NC(=O)c3ccco3)cc2)c1	-21.1%	i	6.5e-09	i	1.1%
O=C(NCc1ccccc1)[C@@H]1C[C@H]1[C@@H](NP(=O)(c1ccccc1)c1ccccc1)c1ccccc1	?	.	.	.	1.8%
COc1ccccc1N1CCN(C(=O)CN(Cc2ccccc2)S(C)(=O)=O)CC1	16.3%	i	1.4e-09	i	1.2%
CCOC(=O)N1CCN(c2c(-c3ccc(C)cc3)c(=O)c2=O)CC1	11.9%	i	3.23e-08	i	0.3%
CC(=O)NC(C(=O)NCC(N)=O)C(C)C (centres undefined)	-0.4%	i	1e-09	i	1.4%
Cn1c(=O)c2c(nc(OCc3ccccc3)n2C)n(C)c1=O	11.8%	.	.	.	1.9%
O=C(CN1C(=O)CSc2ccccc21)Nc1ccccc1C(=O)N1CCOCC1	12.9%	i	3.6e-09	i	-1.9%
CCOc1ccc(CCNC(=O)C2CCCN(C(=O)N(C)C)C2)cc1OCC (centres undefined)	-3.1%	i	4.4e-09	i	-0.4%
Cn1c(=O)oc2cc(S(=O)(=O)NCCN3CCCCCC3)ccc21	-3.2%	i	3.39e-08	i	-0.7%
Cc1nc2ccccc2nc1OCC(=O)Nc1cc(C(F)(F)F)ccc1N1CCOCC1	?	i	1e-09	i	-3.2%
O=C(Cn1c(=O)sc2ccccc21)Nc1ccc(S(=O)(=O)N2CCCCC2)cc1	-9.4%	i	4.85e-08	i	0.5%
Cc1ccc(CN(CC2CCCO2)C(=O)CN2C(=O)C(C(C)C)Oc3ccccc32)o1 (centres undefined)	?	i	9e-09	i	-4.1%
O=C(COc1ccc(Cl)cc1)NCc1nnc(SCC(=O)N2CCCc3ccccc32)o1	?	i	1.5e-09	i	-0.7%
Cc1cccc(N2CCN(c3nnnn3-c3ccccc3)CC2C)c1 (centres undefined)	?	i	1.45e-08	i	1.1%
CCc1nc(C)c(-c2ccccc2)c(=O)[nH]1	0.0%	i	1.6e-09	i	-0.8%
O=S(=O)(Nc1ccc(-c2nc3ccccc3o2)cc1)c1ccccc1	-2.4%	i	1.15e-08	i	2.3%
CC(=O)Nc1n[nH]c(S(=O)(=O)Cc2ccc(Cl)cc2Cl)n1	.	i	1e-09	i	.
COc1ccc(Oc2ccc(S(=O)(=O)N3CCCCC3)cc2S(=O)(=O)N2CCCCC2)cc1	?	.	.	.	-0.5%
CC(C)OCC(O)CSc1ccccn1 (centres undefined)	?	.	.	.	2.5%
COc1cccc(-n2nnnc2SCC(=O)N2CCCc3ccccc32)c1	?	i	8.8e-09	i	-2.0%
O=C(COC(=O)c1ccccc1F)c1ccc(-n2nncc2-c2ccco2)cc1	?	i	4.3e-09	i	1.4%
N#Cc1cccc(-c2cncnc2NCCc2cnc[nH]2)c1	?	i	1e-09	i	0.2%
Cc1cc(NC(=O)Cn2nc3c(cc2=O)CCCC3)ccc1Br	-5.3%	i	1.02e-08	i	-0.6%
O=c1oc2c3c(nn2c2ccccc12)CCCC3	14.1%	.	.	.	-0.9%
Oc1ccc(Cl)cc1C=Nc1cnc2ccccc2c1	-2.5%[11.4 µM]	i	1e-09	i	10.8%[11.5 µM]
Cc1ccc(-c2nnn(CCC(=O)NC3CCCC3)n2)cc1	15.5%	i	1.02e-08	i	0.8%
CS(=O)(=O)c1ccc(N2CCOCC2)c(S(C)(=O)=O)c1	7.8%	i	5.53e-08	i	2.2%
Cc1cc(NC(=O)CSc2nnc(-c3ccco3)o2)no1	?	i	8.6e-09	i	-0.2%
COc1ccc(C2=CC(c3ccc(F)cc3)n3nnnc3N2)cc1 (centres undefined)	24.5%[11.4 µM]	.	.	.	18.0%
N#Cc1c(N)nc2c(c1-c1ccco1)CCCCC2	1.7%	i	2.42e-08	i	0.5%
Next section
SMILES	TSHR ag	A488 fluor	A647 autofl	Resorufin autofl	AID923
CCCC(=O)NCCCc1nc2ccccc2n1C	-0.3%	.	.	.	2.7%
CCOC(=O)N1CCN(CC(=O)c2ccc3c(c2)CCN3C(C)=O)CC1	3.1%	.	.	.	1.8%
CCOc1ccccc1N1CCN(c2nc3ccccc3nc2C(C#N)C(=O)OC(C)C)CC1 (centres undefined)	.	i	1e-09	i	.
CCOC(=O)c1ccc(NC(=O)CN2CCN(c3ccccc3)CC2)cc1	?	i	1e-09	i	0.4%
O=C(Nc1ccc2oc(-c3ccccc3Cl)nc2c1)c1cncc(Br)c1	21.7%	i	1e-09	i	0.2%
CCN1CCN(C(=O)C2=C(C(=O)O)CCCC2)CC1	0.3%	i	1e-09	i	-1.1%
COc1ccccc1CNc1nc(-c2c(C)noc2C)nc2ccccc12	?	i	1e-09	i	3.2%
Cc1ccc(Nc2nc(C)cc(C)n2)c(Br)c1	7.0%	i	1e-09	i	1.0%
Cc1ccc(CNC(=O)CCS(=O)(=O)c2ccc(Br)s2)o1	-1.4%	i	9.2e-09	i	2.1%
O=C(O)Cn1nc(-c2ccccc2)c2ccccc21	8.5%	.	.	.	-0.2%
CCOC(=O)N1CCN(S(=O)(=O)c2cc(Cl)c(OC)cc2Cl)CC1	2.7%	i	2.2e-09	i	-0.1%
O=C(Nc1nnc(C2CCCCC2)s1)c1ccc(Br)s1	-7.4%	i	2.24e-08	i	1.2%
O=C(N1CCOCC1)n1nnc2ccccc21	-5.8%	.	.	.	1.2%
COc1cc(N2C(=O)NC3CC2(C)Oc2ccccc23)cc(OC)c1OC (centres undefined)	-4.4%[11.4 µM]	i	4.23e-08	i	0.3%
CC(C)CCNc1nc2c(c(=O)[nH]c(=O)n2C)n1CC(O)COC(C)C (centres undefined)	1.0%	i	1e-09	i	-1.4%
Cc1cc(C)n2c(SCC(=O)NCc3ccco3)nnc2n1	-2.3%[11.4 µM]	i	4.7e-09	i	-1.2%
CC(NC(=O)COc1ccccc1)C(c1ccccc1)N1CCN(C)CC1 (centres undefined)	11.9%	i	1e-09	i	1.6%
COC(=O)c1sc2ccccc2c1C(=O)OC	19.1%	i	4.33e-08	i	2.9%
COC(=O)c1c(NC(=O)C2CC=CCC2C(=O)O)sc(C(N)=O)c1C (centres undefined)	1.7%	i	1.7e-09	i	2.3%
C[C@H](O)[C@H](O)[C@@H](O)c1cnc2nc(N)[nH]c(=O)c2n1	-4.0%	i	1e-09	i	.
CCOC(=O)c1c(C)[nH]c(C)c1C(=O)COC(=O)CCOc1ccccc1OC	29.2%	i	2.3e-09	i	1.0%

Limited to AID923, for 6 of the compounds above:
SMILES,AID923
Cc1ccc(Nc2nc(C)cc(C)n2)c(Br)c1,1.0%
CCCCS(=O)(=O)C(=C1Nc2ccccc2N1)S(=O)(=O)CCCC,-1.2%
Cc1cccc(NC(=O)CN(C)S(=O)(=O)c2ccccc2)n1,-2.1%
O=c1oc2c3c(nn2c2ccccc12)CCCC3,-0.9%
Cn1c(=O)c2c(ncn2CCN(CCO)Cc2ccccc2)n(C)c1=O,-0.9%
O=C(COc1ccc(Cl)cc1)NCc1nnc(SCC(=O)N2CCCc3ccccc32)o1,-0.7%

Reformatted bar-delimited: 2 of the compounds above.
smiles | TSHR ag | A488 fluor | A647 autofl | Resorufin autofl | AID923
COC(=O)c1sc2ccccc2c1C(=O)OC | 19.1% | i | 4.33e-08 | i | 2.9%
CCOC(=O)c1c(C)[nH]c(C)c1C(=O)COC(=O)CCOc1ccccc1OC | 29.2% | i | 2.3e-09 | i | 1.0%
